CHT inh: inhibitors of human choline transporter CHT | CHT-expressing cells, membrane potential dye, choline response; hits give low values | actives 0.86% (n = 310,000) | B-score at 10 µM | High affinity choline transporter 1 (Homo sapiens), Q9GZV3;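 active means B-score over 3 SD under the library average, and starting fluorescence ratio not unusually high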;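 further: choline stimulus applied at its EC90 after an EC20 pre-addition; B-score computed on integrated fluorescence ratio after choline addition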
Target sequence (Q9GZV3 whole entry, looked up): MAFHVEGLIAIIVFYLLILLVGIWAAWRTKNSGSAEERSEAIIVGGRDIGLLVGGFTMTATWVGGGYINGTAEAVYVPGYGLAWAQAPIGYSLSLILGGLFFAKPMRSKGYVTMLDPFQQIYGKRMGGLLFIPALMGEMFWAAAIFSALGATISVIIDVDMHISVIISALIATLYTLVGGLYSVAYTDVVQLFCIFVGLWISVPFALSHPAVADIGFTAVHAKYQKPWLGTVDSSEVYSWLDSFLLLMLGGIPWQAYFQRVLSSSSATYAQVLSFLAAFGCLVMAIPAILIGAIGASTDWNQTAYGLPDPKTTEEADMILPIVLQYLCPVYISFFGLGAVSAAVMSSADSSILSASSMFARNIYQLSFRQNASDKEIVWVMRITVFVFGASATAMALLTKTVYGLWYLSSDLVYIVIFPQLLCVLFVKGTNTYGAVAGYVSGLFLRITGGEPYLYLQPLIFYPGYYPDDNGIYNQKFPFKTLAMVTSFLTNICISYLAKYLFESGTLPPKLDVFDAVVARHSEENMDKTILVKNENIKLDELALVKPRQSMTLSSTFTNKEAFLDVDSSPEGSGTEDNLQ
CHT allo act: CHT positive allosteric modulators, primary screen, cell-based, membrane potential dye, choline EC20. B-score at 10 µM. CHT-expressing cells; hits give high values; LV-AA mutant CHT in HEK293 cells. High affinity choline transporter 1 (Homo sapiens), Q9GZV3. actives 0.49% (n = 310,000);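 active means initial fluorescence not abnormally high and integrated response B-score, plate-corrected, over 3 SD above library mean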
Calls only; i = inactive.

Start of the listing, in advance (6 entries):
#	SMILES	CHT allo act	CHT inh
1	C/C(=N/OC(=O)C1CC1c1ccccc1)c1ccccc1 (stereo not given)	i	i
2	Cc1cc(C)n(-c2ccc(C(=O)OCC(=O)Nc3ccc(Cl)c(S(=O)(=O)N(C)C)c3)cc2)n1	i	i
3	Fc1ccc(NC(=S)NCCN2CCOCC2)c(F)c1F	i	i
4	O=C(COC(=O)c1ccncc1)c1ccc(Cl)c(Cl)c1	i	i
5	Cn1c(=O)oc2cc(S(=O)(=O)N3CCCC(C(=O)NCc4ccc5c(c4)OCO5)C3)ccc21 (stereo not given)	i	i
6	C=CCOC(=O)C1=C[C@@H](c2ccccc2)C[C@@H](OCc2ccc(CO)cc2)O1	i	i

This part in full, repeating the preview:
#	SMILES	CHT allo act	CHT inh
1	C/C(=N/OC(=O)C1CC1c1ccccc1)c1ccccc1 (stereo not given)	i	i
2	Cc1cc(C)n(-c2ccc(C(=O)OCC(=O)Nc3ccc(Cl)c(S(=O)(=O)N(C)C)c3)cc2)n1	i	i
3	Fc1ccc(NC(=S)NCCN2CCOCC2)c(F)c1F	i	i
4	O=C(COC(=O)c1ccncc1)c1ccc(Cl)c(Cl)c1	i	i
5	Cn1c(=O)oc2cc(S(=O)(=O)N3CCCC(C(=O)NCc4ccc5c(c4)OCO5)C3)ccc21 (stereo not given)	i	i
6	C=CCOC(=O)C1=C[C@@H](c2ccccc2)C[C@@H](OCc2ccc(CO)cc2)O1	i	i
7	Cc1ccc(S(=O)(=O)Nc2ccc(N3CCOCC3)cc2)cc1[N+](=O)[O-]	i	i
8	CCCCC(=O)Nc1ccccc1C#N	i	i
9	CCOC(=O)Cn1c(=O)oc2cc(S(=O)(=O)N(CCN(C)C)Cc3ccccc3)ccc21	i	i
10	COc1ccc(S(=O)(=O)N(C(=O)c2ccco2)c2cc3sc(=O)oc3c3ccccc23)cc1	i	i
11	N#Cc1ccc(-c2ccccc2)nc1SCC(=O)c1cc2ccccc2oc1=O	i	i
12	CCOc1ccc(NC(=S)N(CCOC)C(C)c2ccco2)cc1 (stereo not given)	i	i
13	CCCCOc1ccc(/C(O)=C2/C(=O)C(=O)N(CCCOC)C2c2ccncc2)cc1C (stereo not given)	i	i
14	COc1ccc(C2(C)NC(=O)N(CC3CCCCC3)C2=O)cc1 (stereo not given)	i	i
15	Cc1nnc(SCC(=O)Nc2cc(C(F)(F)F)ccc2Cl)n1C	i	i
16	O=S(=O)(NCc1ccccc1)NCc1cccc(C(F)(F)F)c1	i	i
17	Cc1cc(C)cc(NC(=O)Nc2ccc(Cl)cn2)c1	i	i
18	COc1ccc(C2=NN(C(C)=O)C(c3ccccc3)C2)cc1 (stereo not given)	i	i
19	Cc1ccc(C2CC(c3cccs3)=NN2S(=O)(=O)c2ccc(C)cc2)cc1 (stereo not given)	i	i
20	COc1ccc(NC(=O)c2ccc(COCC(F)(F)C(F)F)cc2)cc1OC	i	i
21	Cc1cc(C)c(NC(=O)CS(=O)CC(=O)NCCCc2ccccc2)c(C)c1 (stereo not given)	i	i
22	Cc1ccccc1C(=O)NC(=S)Nc1ccc(S(=O)(=O)N2CCOCC2)cc1	i	i
23	Cc1cc(OCc2nnc(SC(C)C(=O)O)n2-c2ccccc2)ccc1Cl (stereo not given)	i	i
24	O=C(c1cnccn1)N1CCN(c2ccccc2F)CC1	i	i
25	O=C(Cc1ccccc1[N+](=O)[O-])OCc1cccc([N+](=O)[O-])c1	i	i
26	O=C(Nc1cccc2cccnc12)c1cccnc1	i	i
27	COC(CNC(=O)C(C)n1nc(C)c2ccccc21)OC (stereo not given)	i	i
28	CCOc1ccc2nc(N(CCN(CC)CC)C(=O)c3cccc([N+](=O)[O-])c3)sc2c1	i	i
29	CCc1ccc(-c2cn3c(n2)SCC3)cc1	i	i
30	COc1ccc(CCNC(=O)C2CCC(=O)N(CCc3ccc(OC)cc3)C2)cc1 (stereo not given)	i	i
31	O=C(/C=C/c1ccc(O)cc1)c1ccc(NC2=C(N3CCCCC3)C(=O)c3ccccc3C2=O)cc1	i	i
32	Cc1ccccc1NC(=O)CSc1[nH]c(=O)cc(C)c1C#N	i	i
33	Cc1cc(N2CCN(C(=O)c3ccco3)CC2)n2nc(-c3cccc(Cl)c3)cc2n1	i	i
34	CCOC(=O)c1nn(-c2cccc(Cl)c2)c(C)c1C(C)=O	i	i
35	Cc1cc(C)n(C(=O)CCN2C(=O)c3ccccc3C2=O)n1	i	i
36	Cc1ccc(OC(C)C(=O)N2CC(=O)Nc3ccccc32)c(C)c1 (stereo not given)	i	i
37	CCCCc1ccc(NC(=O)N[C@@H](CC(C)C)C(=O)O)cc1	i	i
38	CCN(CC)S(=O)(=O)c1cccc(NC(=O)c2cc(=O)[nH]c3ccccc23)c1	i	i
39	CCc1ccc(NC(=O)Cn2nc(C)n3cccc3c2=O)cc1	i	i
40	COC(=O)c1cc(C(=O)Nn2cnnc2)cc([N+](=O)[O-])c1	i	i
41	CCCc1cc(=O)n2[nH]c(-c3cccc(Br)c3)cc2n1	i	i
42	Cc1ccc(-n2cc(CCCCCCCCC(=O)O)nn2)cc1	i	i
43	Cc1ccc(C(=O)c2cc([N+](=O)[O-])ccc2N2CCCCC2)c(C)c1	i	i
44	COc1ccc(CC(=O)N(C)CC(=O)Nc2cccc(F)c2)cc1S(=O)(=O)N1CCOCC1	i	i
45	CCN(C(=O)CN1CCc2ccccc21)c1c(N)n(Cc2ccccc2)c(=O)[nH]c1=O	i	i
46	Cc1cc(C)cc(N(CC(=O)Nc2c(C)n(C)n(-c3ccccc3)c2=O)S(C)(=O)=O)c1	i	i
47	COc1ccc(NC(=O)c2ccccc2CC[N+](=O)[O-])cc1	i	i
48	C=CCOC(=O)C1=C(C)NC(=O)NC1/C=C/c1ccccc1OC (stereo not given)	i	i
49	CN(c1ccccc1)S(=O)(=O)c1ccc(NC(=S)Nc2ccccc2)cc1	i	i
50	COc1ccccc1CNS(=O)(=O)c1ccc(-n2cnnn2)c(C)c1	i	i

Reprinted at random: three compounds from above
#	SMILES	CHT allo act	CHT inh
29	CCc1ccc(-c2cn3c(n2)SCC3)cc1	i	i
44	COc1ccc(CC(=O)N(C)CC(=O)Nc2cccc(F)c2)cc1S(=O)(=O)N1CCOCC1	i	i
31	O=C(/C=C/c1ccc(O)cc1)c1ccc(NC2=C(N3CCCCC3)C(=O)c3ccccc3C2=O)cc1	i	i

Next results
#	SMILES	CHT allo act	CHT inh
51	COc1ccc(C(C(N)=O)c2ncc(C(F)(F)F)cc2Cl)cc1 (stereo not given)	i	i
52	O=C(O)CC/C(=N\NC(=O)c1ccncc1)c1ccccc1	i	i
53	Cc1cc(C(=O)N2CCCC(N3CCN(c4cccc(C(F)(F)F)c4)CC3)C2)no1 (stereo not given)	i	i
54	COc1ccc(C(=O)N2CCN(c3ccc(NC(=O)c4ccco4)cc3)CC2)cc1	i	i
55	O=C(CSc1nc2ccccc2o1)NCc1ccco1	i	i
56	NC(=O)[C@@H]1CC2(CC(c3cccc(NC(=O)COc4ccc(Cl)cc4)c3)=NO2)CN1C(=O)c1ccccc1 (stereo not given in full)	i	i
57	Cn1cc(C(=O)c2ccc(Cl)cc2Cl)cc1C(=O)N/N=C(\N)COc1cccc(C(F)(F)F)c1	i	i
58	COC(=O)c1ccccc1NC(=O)c1ccc(NC(=O)C2CCCO2)cc1 (stereo not given)	i	i
59	CC(C)CN(C(=O)COC(=O)CNC(=O)c1ccccc1F)C1CCS(=O)(=O)C1 (stereo not given)	i	i
60	CCCCOC(=O)C1=C(C)NC2=C(C(=O)CCC2)C1c1cc(OC)ccc1OC (stereo not given)	i	i
61	CC(=O)Nc1ccc(NS(=O)(=O)c2ccccc2)c2ccccc12	i	i
62	CC1=C/C(=C(/c2cc(C)c(O)c(Br)c2)c2ccccc2S(=O)(=O)O)C=C(Br)C1=O	i	i
63	COc1ccc(CCNC(=O)COc2cc(=O)n(C)c3ccccc23)cc1OC	i	i
64	CC(NC(=O)COc1cccnc1[N+](=O)[O-])c1ccc(Cl)cc1Cl (stereo not given)	i	i
65	COc1ccc(S(=O)(=O)N(CC(=O)Nc2ccc(S(=O)(=O)N3CCOCC3)cc2)c2ccccc2)cc1	i	i
66	CN(C)c1nc(C(F)(F)F)cc(=O)[nH]1	i	i
67	C#CCOCCOCCOCCNc1nc(N2CCN(C(=O)Cn3cc(CCCCN)nn3)CC2)nc(N2CCN(C(=O)[C@H]([C@@H](C)CC)n3cc(CCCN=C(N)N)nn3)CC2)n1	i	i
68	CCC(Sc1nc2ncccc2[nH]1)C(=O)NCCc1ccccc1 (stereo not given)	i	i
69	CCOC(=O)c1cnc2c(-c3ccc(Cl)cc3)c(C)nn2c1N	i	i
70	O=C(N/N=C/c1cccnc1)c1ccc(O)cc1	i	i
71	Nc1nc(SCc2ccccc2)n[nH]1	i	i
72	O=S(=O)(Nc1ccc2c3c(cccc13)CC2)c1ccc(F)cc1	i	i
73	O=C(c1ccc(F)cc1)N1CCCC(C(=O)N2CCN(c3ccccc3)CC2)C1 (stereo not given)	i	i
74	CC(C)NC(=O)C(Sc1ccccc1)c1ccccc1 (stereo not given)	i	i
75	CCOc1ccc(NC(=O)CC2C(=O)N(C)C(=S)N2Cc2ccc3c(c2)OCO3)cc1 (stereo not given)	i	i
76	Cc1cccc(NC(=S)NCc2ccccn2)c1	i	i
77	CCc1ccc2oc(-c3ccc(N)cc3)nc2c1	i	i
78	O=C(NCC(=O)N(Cc1ccco1)C(C(=O)NC1CCCC1)c1cccnc1)c1cccs1 (stereo not given)	i	i
79	CC(C)c1ccc(C(=O)NNC(=O)C2C3CCC(C3)C2C(=O)O)cc1 (stereo not given)	i	i
80	O=C(O)CNc1ccccc1C(=O)O	i	i
81	Cc1cccc2c(CC(=O)O)noc12	i	i
82	COc1cc(C(=O)N2c3ccccc3CCC2C)cc(OC)c1OC (stereo not given)	i	i
83	NC(=O)C1CCN(C(c2ccccc2F)c2nnnn2Cc2ccco2)CC1 (stereo not given)	i	i
84	O=C(Nc1ccccc1)c1cccc2c(Br)cccc12	i	i
85	O=C(NCCCSc1ccccc1)c1cnc(Cl)c(Cl)c1	i	i
86	Cn1nccc1C(=O)N1CCN(c2cccc(Cl)c2)CC1	i	i
87	COC(=O)c1nnn(-c2nonc2N)c1CSc1nnc(N)s1	i	i
88	COc1ccccc1NC(=O)CCCC(=O)OC(C)C(=O)c1ccccc1 (stereo not given)	i	i
89	CC1CC(C)(C)NC(=S)N1CC(=O)NCc1ccc2c(c1)OCO2 (stereo not given)	i	i
90	COc1ccccc1NC(=S)N(Cc1ccco1)Cc1cc2cccc(C)c2[nH]c1=O	i	i
91	O=C(/C=C/c1ccc2ccccc2n1)N1CCN(S(=O)(=O)c2ccc(F)cc2)CC1	i	i
92	COc1ccc(-c2cc(C)no2)cc1S(=O)(=O)N1CCCN(Cc2ccccc2Cl)C1	i	i
93	CCCC(=O)Nc1cc(C)c2c(=O)oc3ccccc3c2n1	i	i
94	CCOc1ccc(C2NC(=O)NC(c3ccccc3)=C2C(C)=O)cc1OC (stereo not given)	i	i
95	COc1ccc(C(=O)NCCSc2ccccc2)cc1OC	i	i
96	O=C(CSc1ccc2nnc(-c3ccccn3)n2n1)Nc1ccc2c(c1)OCCO2	i	i
97	CCC(=O)Nc1cccc(SC)c1	i	i
98	CCOC(=O)CN1CC23C=CC(O2)C(C(=O)NCc2cccs2)C3C1=O (stereo not given)	i	i
99	C[N+](C)(C)CC/C=C1/c2ccccc2CSc2ccccc21	i	i
100	Cn1c2ccccc2c2cc(C(=O)O)ccc21	i	i

New compounds follow
#	SMILES	CHT allo act	CHT inh
101	COc1ccc(Cn2c(O)c(C=Nc3ccc(OC)cc3)c3ccccc3c2=O)cc1	i	i
102	CC(C)Sc1cc(N2CCCC2)nc(-c2ccc(F)cc2)n1	i	i
103	c1cnc2c(Oc3ncnc4sccc34)cccc2c1	i	i
104	CCOc1ccccc1CN1CCNC(=O)C1CC(=O)NCc1ccccn1 (stereo not given)	i	i
105	Cc1cccc(NC(=O)CSc2ccc3nnc(-c4cccnc4)n3n2)c1	i	i
106	CCN1CCN(S(=O)(=O)c2ccc(Cl)c(C(=O)Nc3ccc(OC(F)F)cc3)c2)CC1	i	i
107	CN(C(=O)CSc1nc(C2CC2)nc2ccccc12)c1nc(-c2ccccc2)cs1	i	i
108	O=C(c1ccc(OC2CCN(C/C=C/c3ccccc3)CC2)cc1)N1CCCC1	i	i
109	CSc1ccccc1C(=O)NC1CCCCC1	i	i
110	COC(=O)C1C(c2ccc(OC)c(OC)c2)NC(c2ccc(OC)c(OC)c2)C(C(=O)OC)S1(=O)=O (stereo not given)	i	i
111	O=C(CCN1C(=O)C2C3CCC(C3)C2C1=O)Nc1ccccc1Cl (stereo not given)	i	i
112	Fc1cnc(N2CCOCC2)nc1NCc1ccccc1	i	i
113	Cc1cc(C)cc(-n2cnc3cc(C(=O)O)ccc32)c1	i	i
114	O=C1C(Cl)=C(N2CCOCC2)C(=O)N1c1cccc(C(F)(F)F)c1	i	i
115	COc1ccc(C2SCCN2S(=O)(=O)c2ccccc2)cc1 (stereo not given)	i	i
116	OCCC1CN(Cc2cccc3nccnc23)CCN1Cc1ccc(F)cc1 (stereo not given)	i	i

A second format for 4 compounds above:
90) COc1ccccc1NC(=S)N(Cc1ccco1)Cc1cc2cccc(C)c2[nH]c1=O
  CHT allo act: i | CHT inh: i
91) O=C(/C=C/c1ccc2ccccc2n1)N1CCN(S(=O)(=O)c2ccc(F)cc2)CC1
  CHT allo act: i | CHT inh: i
92) COc1ccc(-c2cc(C)no2)cc1S(=O)(=O)N1CCCN(Cc2ccccc2Cl)C1
  CHT allo act: i | CHT inh: i
93) CCCC(=O)Nc1cc(C)c2c(=O)oc3ccccc3c2n1
  CHT allo act: i | CHT inh: i

This is a subset, and most or all hits are left out here.
